Bioassay records as filed in PubChem.
YopH PTP inh: YopH (Yersinia) phosphatase inhibition | fluorescence Ex485/Em525 | inhibition, %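 (about 10 µM by stock and volumes)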 | 0.16% of 140,000 active | AID 898;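 active = inhibition of 50% or more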;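 also: controls were vehicle for no effect and minimum signal wells for full effect; inactives centre near -20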
Mtb bLac sens: beta-lactam sensitization of Mtb H37Rv; M. tuberculosis H37Rv growth with meropenem, percent inhibition; hits of this screen are not shown here; inhibition, % at 25 µM; 0.27% of 330,000 active;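 active = about 74% or more and at least 40 points above the plate without the antibiotic, then above 30% in a dose series; inconclusive = first-round hits that could not be retested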;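 also: growth measured after seven days incubation then overnight dye step; 0% = bacteria only wells and 100% = bacteria with antibiotic; twin plates without the antibiotic show which effects depend on it; some results filed as inactive read as strong as hits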
Mtb H37Rv: M. tuberculosis H37Rv growth inhibitors, H37Rv strain (AID 1626); one-dose inhibition, % at 10 µM; IC50 in µM for titrated hits; 0.95% of 220,000 active; M. tuberculosis H37Rv growth inhibition; higher % means a stronger effect;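 active = confirmed in a dose series; inconclusive = inhibition above 80% but not taken into the dose series; inactive = below 80% or under 30% at every dose of the series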;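 also: bacteria incubated seven days before Alamar blue readout; 0% = bacteria only wells and 100% = bacteria with antibiotic wells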
Arbovirus inh: arbovirus infection inhibition; arbovirus infection cell-based antiviral screen; 0.37% of 200,000 active; inhibition, % at 10 µM; AID 1251;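 active = inhibition from about 30%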;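 also: bluetongue infection of BSR cells; cell survival read as ATP light after 72 h; 0% = infected wells without compound and 100% = uninfected wells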
RecA splice inh: blocks M. tuberculosis RecA intein splicing; P9WHJ3; cell-free RecA intein splicing, fluorescence; inhibition, %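 (about 9 µM by stock and volumes)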; 0.75% of 290,000 active; in the data active = inhibition above about 30%; inconclusive = no clear call, values can overlap the other calls;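 also: 0% = vehicle wells and 100% = reference inhibitor control wells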
Target sequence (P9WHJ3 whole entry, looked up, canonical isoform): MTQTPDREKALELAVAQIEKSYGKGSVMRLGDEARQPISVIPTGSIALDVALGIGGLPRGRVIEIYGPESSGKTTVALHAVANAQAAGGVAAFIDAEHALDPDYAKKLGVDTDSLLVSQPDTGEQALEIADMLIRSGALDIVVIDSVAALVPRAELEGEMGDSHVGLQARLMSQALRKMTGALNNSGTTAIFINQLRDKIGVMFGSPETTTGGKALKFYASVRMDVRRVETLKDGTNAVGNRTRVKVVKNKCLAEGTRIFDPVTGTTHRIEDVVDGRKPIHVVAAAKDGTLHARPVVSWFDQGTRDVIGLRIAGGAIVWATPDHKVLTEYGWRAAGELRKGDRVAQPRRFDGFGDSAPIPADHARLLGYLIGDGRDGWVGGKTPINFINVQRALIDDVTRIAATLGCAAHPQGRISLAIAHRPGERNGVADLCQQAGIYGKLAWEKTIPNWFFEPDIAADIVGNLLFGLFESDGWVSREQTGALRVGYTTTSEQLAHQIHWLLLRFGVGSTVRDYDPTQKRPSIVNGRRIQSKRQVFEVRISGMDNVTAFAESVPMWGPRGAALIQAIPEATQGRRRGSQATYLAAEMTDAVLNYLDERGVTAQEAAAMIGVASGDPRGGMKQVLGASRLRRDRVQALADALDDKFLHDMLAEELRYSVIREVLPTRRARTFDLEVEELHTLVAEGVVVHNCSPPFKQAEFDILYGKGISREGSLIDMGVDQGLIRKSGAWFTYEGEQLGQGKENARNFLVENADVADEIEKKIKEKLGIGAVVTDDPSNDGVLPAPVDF
Arbovirus inh repeat: further read-out of Arbovirus inh, marked with its call; inhibition, %; measured here: 10K subset replicate screen; many hits read low in the repeat;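 first of two repeat runs on a subset; 0% = infected and 100% = uninfected wells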
* hit, by the source's call; ? = inconclusive; / = no result given.

Sample of the layout (three entries):
SMILES	YopH PTP inh	Mtb bLac sens	Mtb H37Rv	Arbovirus inh	RecA splice inh	others
Cc1cccn2c(=O)c(C=O)c(N3CCSCC3)nc12	/	53.3	7.5%	/	0.4
O=C(NC(=S)N1CCN(Cc2ccccc2)CC1)c1ccccc1	-28.3	36.8	?	-13.0	-0.9
O=C(NCCN1CCOCC1)c1ccc(CS(=O)c2ccccc2Cl)o1 (stereo not given)	/	-2.6	/	/	-2.7

Main list, from the start:
SMILES	YopH PTP inh	Mtb bLac sens	Mtb H37Rv	Arbovirus inh	RecA splice inh	others
Cc1cccn2c(=O)c(C=O)c(N3CCSCC3)nc12	/	53.3	7.5%	/	0.4
O=C(NC(=S)N1CCN(Cc2ccccc2)CC1)c1ccccc1	-28.3	36.8	?	-13.0	-0.9
O=C(NCCN1CCOCC1)c1ccc(CS(=O)c2ccccc2Cl)o1 (stereo not given)	/	-2.6	/	/	-2.7
Cc1ccc(C2=NN(Cc3nnc(-c4ccccc4)o3)C(=O)SC2)cc1	-30.5	1.0	4.7%	1.4	2.3
Fc1cccc(-c2cc3nc(-c4ccccc4)cc(N4CCC5(CC4)OCCO5)n3n2)c1	-12.7	17.9	>100µM*	-13.4	-105.8
CC1=CC(=NOC(=O)/C=C/c2ccccc2)C=C(C)C1=O	-42.4	65.9	8.0%	-5.3	3.9
Cc1c(NC(=O)C(C)N2CC(C)OC(C)C2)c(=O)n(-c2ccccc2)n1C (stereo not given)	-52.8	5.6	-3.9%	3.9	-1.1
C=CCn1c(=NC(=O)c2ccc(S(=O)(=O)N3CCc4ccccc4C3)cc2)sc2cc(S(N)(=O)=O)ccc21	-22.3	9.0	10.1%	-47.0	7.2
Cc1cccc(-c2noc(CN(C)C(=O)COc3ccccc3)n2)c1	/	-15.5	/	/	1.0
Cc1ccc(C(=O)NC2CC(C)(C)NC(C)(C)C2)cc1S(=O)(=O)N1CCCCC1	/	-12.2	/	/	1.3
COCCCC1CCN(C(=O)C2CCC(=O)N(CCc3ccccc3)C2)CC1 (stereo not given)	/	-4.4	/	/	-0.6
COc1ccccc1NC(=O)C(=N\O)/C(C)=N/O	-20.0	8.2	-0.2%	-5.3	1.1
O=c1[nH]c2ccccc2n2c(-c3ccccc3)nnc12	-4.2	19.6	0.7%	11.8	33.2*
CCOC(=O)c1cccc(NC(=O)c2cccnc2)c1	-39.2	-9.9	4.9%	-3.6	0.3
COc1cc(C(=O)Nc2cc(C)nn2-c2ccccc2)cc(OC)c1OC	/	-4.5	/	/	-0.1
CCOc1ccccc1NC(=O)c1cccc(NC2=NC3CS(=O)(=O)CC3S2)c1 (stereo not given)	/	16.6	/	/	-3.6
CN1CC(=O)Nc2ccc(Br)cc2C1=O	/	2.7	/	/	0.0
Cc1cc(C)cc(NC(=S)NCCCO)c1	-36.8	0.4	4.4%	4.4	-2.3
CC(=O)c1cccc(NC(=O)c2ccccc2N(Cc2ccccc2)S(C)(=O)=O)c1	/	-27.1	/	/	0.3
CCN(CC)CCNC(=O)c1ccc(CS(=O)(=O)c2ccccc2C)o1	/	-9.3	/	/	1.1
Cc1cc(CNC(=O)CC2C(=O)NCCN2Cc2ccccc2C(F)(F)F)on1 (stereo not given)	/	-2.5	-2.4%	0.7	-3.3
Cc1ccc(NNC(=O)c2c(F)cccc2Cl)cc1Cl	/	96.8	71.1%	/	2.8
O=C(Nc1cccc(S(=O)(=O)N2CCCCCC2)c1)c1ccc2c(c1)OCO2	9.4	12.2	9.0%	5.0	-0.9
Cc1noc(C)c1CSCC(=O)Oc1ccc(N(C)S(=O)(=O)c2ccc(Cl)cc2)cc1	/	0.2	/	/	40.1*
CCn1cc(C(=O)O)c(=O)c2cnc(N3CCN(C(=S)NC(=O)c4ccc(Br)cc4)CC3)nc21	/	30.1	4.5%	/	6.7

Continued.
SMILES	YopH PTP inh	Mtb bLac sens	Mtb H37Rv	Arbovirus inh	RecA splice inh	others
O=[N+]([O-])c1cc(Br)c(O)c(/C=N/Nc2nc3ccccc3s2)c1	/	/	?	-38.1	14.9
Cc1onc(-c2c(F)cccc2Cl)c1C(=O)ONC(=O)c1ccco1	/	6.2	-6.7%	/	-4.8
COc1ccc(C(=O)N/N=C/c2ccc(OC)c(OS(=O)(=O)c3ccccc3)c2)cc1	-20.5	0.1	7.3%	-15.6	-0.6
CCN(CC)CCn1c(=S)[nH]c2ccc(Cl)cc2c1=O	-45.7	-3.2	/	-6.4	-1.0
COc1ccc(OC)c(-c2cc(C(=O)N/N=C(\C)c3cccnc3)c3ccccc3n2)c1	/	-1.4	/	/	1.9
O=C(CSc1ccc(-c2nc3ccccc3[nH]2)cn1)Nc1ccc2c(c1)OCCO2	-46.3	5.0	-0.3%	-17.6	3.1
O=C(CSc1nnc(CCc2ccccc2)n1-c1ccc(Cl)cc1)c1ccccc1	-21.5	1.5	1.0%	-15.7	17.3
COc1ccc(OC)c(/C=C2\SC(=S)N(N3CCOCC3)C2=O)c1	/	-7.3	-12.3%	/	/
S=c1[nH]nc(-c2ccccc2)n1/N=C/C=C/c1ccco1	50.8*	0.8	4.2%	-2.1	6.4
NC(=O)SCC(=O)Nc1ccc(Cl)c(Cl)c1	-24.9	-7.0	4.1%	-4.3	/	Arbovirus inh repeat=3.9
CN1CCN(/C=N/c2c(C#N)cnn2Cc2ccccc2)CC1	-34.0	-1.8	-2.6%	7.0	-3.1
COc1ccccc1-n1c(-c2ccc(F)cc2)coc1=O	/	-1.5	/	/	-4.7
COC1=CC(=O)OC(/C=C/c2ccccc2)C1 (stereo not given)	-49.8	-4.4	2.2%	8.3	-3.4
CC(C)Cn1c(CN2C(=O)c3ccccc3C2=O)nc2ccccc2c1=O	-45.3	-8.7	-5.0%	1.8	1.9	Arbovirus inh repeat=0.3
CC(=O)c1ccc(NC(=O)C2(c3ccccc3)CC2(Cl)Cl)cc1 (stereo not given)	/	38.5	16.2%	/	2.3
CC(C)(O)c1ccccc1CC[C@@H](SCC1(CC(=O)O)CC1)c1cccc(/C=C/c2ccc3ccc(Cl)cc3n2)c1	/	1.9	-8.1%	/	12.4
O=[N+]([O-])c1ccc(OCC(O)CNC2CCCC2)cc1 (stereo not given)	/	-3.5	4.9%	/	-1.8
c1ccc2oc(Cc3ccc(Cc4nc5ccccc5o4)cc3)nc2c1	-8.1	-4.4	-1.2%	4.6	1.8
CCCCn1nnnc1SCC(=O)Nc1cccc(C)n1	31.1	-14.9	3.4%	3.6	/
CSCc1nnc(NC(=O)c2ccc(S(=O)(=O)N3CCCCC3C)cc2)o1 (stereo not given)	/	1.8	/	/	0.5
O=C(O)CCS(=O)(=O)c1cc(Br)cc2c1N(C(=O)C1CC1)CC2	/	-3.5	0.1%	5.2	-1.2
Cn1c2c(c3ccccc31)CC/C2=N\O	-12.3	68.9	/	2.5	-1.4	Arbovirus inh repeat=-0.9
Cn1ccnc1C(O)c1ccc(OCc2ccccc2)cc1 (stereo not given)	-14.6	4.3	-3.3%	0.5	-0.1
Cc1cccc(C)c1NC(=O)COC(=O)COc1ccc2c(C)cc(=O)oc2c1	-25.1	-8.6	-8.1%	-3.8	-0.4
O=c1sc2ccccc2n1CCCOc1ccccc1	-8.8	-4.9	14.3%	-8.9	8.5

(continued)
SMILES	YopH PTP inh	Mtb bLac sens	Mtb H37Rv	Arbovirus inh	RecA splice inh	others
CCCn1c2ccccc2c2cnn(CC(=O)NCCCN3C(C)CCCC3C)c(=O)c21 (stereo not given)	/	-9.9	/	/	-2.2
O=C(Nc1ccc(N2CCOCC2)cc1)C1CCN(S(=O)(=O)Cc2ccccc2)CC1	-25.4	-4.5	6.1%	-12.1	-1.0
CCCc1cc(C(=O)Nc2cccc(C(C)=O)c2)no1	-25.0	5.0	7.0%	-0.6	2.3	Arbovirus inh repeat=-3.2
COc1cc2c(cc1O)C[C@H]1NCCc3cc4c(c-2c31)OCO4	-17.4	52.6	-3.1%	-35.1	0.9
COC(=O)c1sc2nc(N)c(C#N)cc2c1N	-23.6	-7.6	2.2%	-3.1	-7.3
Cc1cc(C)cc(NC(=O)c2c(C)nc3ccccn23)c1	/	5.8	-5.5%	-0.2	1.5
CCNC(=S)N(Cc1cc2cc(C)ccc2[nH]c1=O)C1CCCC1	-20.6	-2.7	-1.6%	-1.5	-3.1
COc1ccc(Cl)cc1CN1C(=O)NC2(CCCCCC2)C1=O	/	7.9	/	/	-1.2
CCN(CC)CCCNC(=O)c1csc(Nc2cccc3ccccc23)n1	/	-9.8	/	/	0.1
Cc1cc(C(=O)c2cnc(/N=C/N(C)C)s2)cc(C)c1O	-38.5	-1.4	-3.7%	-4.3	-5.5
CC(C)(C)Nc1c(-c2ccc(O)cc2)nc2ccc(Cl)cn12	/	4.8	-5.8%	-2.7	-0.2
CCOC(=O)Cn1c(CCC(=O)O)ccc1-c1ccc(F)cc1	-14.5	-7.3	2.0%	-0.2	5.5	Arbovirus inh repeat=2.1
CSc1nc2ccccc2n1CC(=O)Nc1cc(C(F)(F)F)ccc1N1CCOCC1	-25.4	2.4	1.6%	-6.9	/
Cc1ccc2c(CSc3nnc4ccccn34)cc(=O)oc2c1C	-6.6	-6.0	-5.4%	6.0	-1.4
COc1cc(NC(=O)C2=C(C)OCCS2)c(Cl)cc1C(=O)NCCN1CCN(C)CC1	/	5.4	/	/	0.9
CCN1CCCC1CNS(=O)(=O)c1ccc(Cl)c(C(F)(F)F)c1 (stereo not given)	/	-0.5	6.2%	8.6	0.3
CN(C)CCN=Cc1c(O)n(C2CCCCCC2)c(=O)[nH]c1=O	-4.9	-3.1	-6.2%	6.3	-14.9
C/C(=N\NC(=O)c1ccc(Br)cc1)c1cccnc1	/	2.8	/	/	0.1
C/C(=N\NC(=O)CC1N=C(Cc2ccccc2)NNC1=O)c1ccccc1 (stereo not given)	-29.1	-6.1	-0.6%	0.9	0.4
COc1ccc(N2C(=O)CCC(C(=O)N3CCCCCC3)C2c2ccc(OC)c(OC)c2)cc1 (stereo not given)	-1.3	4.6	-5.0%	0.8	1.6	Arbovirus inh repeat=5.7
CCOC(=O)c1cnc2c(c(C)nn2CC)c1NCCN1CCOCC1	/	-2.2	-0.3%	6.0	0.6
CCC(C)(C)NC(=O)C(c1ccc(C)cc1)N(Cc1ccco1)C(=O)Cn1nnc2ccccc21 (stereo not given)	0.6	0.7	6.2%	-14.1	-0.3
CC(C)N(Cc1nccn1C)C(=O)c1cc(COc2ccc(-n3cncn3)cc2)on1	/	-6.4	/	/	1.7
CN(C)c1nc(N)c(C(=O)N=C(N)N)nc1Cl	/	4.0	-8.7%	/	-0.1
Nc1cc2nc3ccccc3oc-2cc1=O	/	-9.3	0.368µM*	/	/

Additional results
SMILES	YopH PTP inh	Mtb bLac sens	Mtb H37Rv	Arbovirus inh	RecA splice inh	others
Cc1cccc(NC(=S)NNC(=O)c2ccccc2Br)c1	-11.9	3.0	6.2%	-9.6	-3.3
Cc1ccc(NC(=O)c2ccc3nc(N4CCOCC4)sc3c2)c(Cl)c1	/	-0.2	/	/	2.5
O=C(O)c1cc(O)ccc1NC(=O)c1cccc2ccccc12	/	-1.4	-2.9%	/	2.4
COC(=O)c1sc(NC(=O)CSc2nc3nc(C)cc(C)n3n2)c(C(=O)OC)c1C	/	-3.8	/	/	2.1
O=C(CNC(=O)c1ccccn1)N/N=C/c1ccccc1	2.7	-5.0	-2.8%	2.1	-7.0
CCN1C(=O)c2ccc(C(=O)Nc3ncc(C)s3)cc2C1=O	/	-11.5	-4.1%	2.1	0.9
CCOC(=O)N1CCN(Cc2nc(-c3cccs3)no2)CC1	/	-7.8	-6.8%	-3.3	1.0
O=C(CCC1=NS(=O)(=O)c2ccccc2N1)NC1CCCCCCC1	-60.5	3.2	-5.3%	1.3	-1.7
CCOc1ccc(CCNS(=O)(=O)c2cccc3nsnc23)cc1OCC	-28.8	0.2	-4.1%	8.2	-12.2
CCc1ccc(-c2cc(C)no2)cc1S(=O)(=O)NCc1ccccc1OC	/	-1.1	/	/	2.2
COc1ccc(C(=O)Nc2cccc(C(=O)NCc3ccccc3)c2)cc1	/	1.7	2.6%	-16.9	4.6
COC(=O)Cn1cc(C(=O)C(C)(C)C)c2ccccc21	/	-0.5	-4.6%	10.1	-1.6
CCSC1(SCC)N=C(N)C2(C#N)C(c3ccccc3)NC(C)=CC12C#N (stereo not given)	-48.2	-5.6	-9.5%	-0.3	-1.4
CCOCC(=O)Nc1ccc(S(=O)(=O)N2CCOCC2)cc1	-13.2	-3.8	-4.1%	-0.7	3.1
CC(C)N1CCC2(CC1)NC(CO)(CO)CO2	-13.8	-8.2	-0.8%	1.4	-0.4
Cc1ccc(SCCNC(=S)Nc2ccccc2)cc1	-16.4	8.5	11.4%	-25.8	2.8
O=C1Nc2ccccc2C1=Nc1cccc(Cl)c1	/	-14.6	/	/	3.3

Some of the compounds tested; count on the stated rates, not on these rows.
